Compound activity (PubChem BioAssay)
CDC25B-CDK2 inh: human CDC25B-CDK2/CyclinA binding inhibition; HTRF CDC25B-CDK2/CyclinA binding, anti-His/anti-Flag; active compounds read high; actives 0.72% (n = 94,000); z-score (no concentration beside the values); P30305+P24941; AID 1259370;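 further: score is relative to mean and SD of negative controls; strong numbers were not always called active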
HIV TAR-Tat: HIV-1 TAR-Tat binding disruption | AID 1259389 | HIV-1 TAR RNA, Tat peptide displacement FRET; active compounds read high | actives 0.6% (n = 100,000) | z-score (test concentration not listed);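 further: score is relative to mean and SD of negative controls; some compounds called inactive have numbers as strong as hits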
Active calls of the source: *; nt = no result given.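 How the source made its calls: active means z-score from 3 up in half or more of its runs; inactive means the rest.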

SMILES	CDC25B-CDK2 inh	HIV TAR-Tat
Cc1ccc(C(=O)O)cc1N1C(=O)c2ccc(Oc3ccc4c(c3)C(=O)N(c3cc(C(=O)O)ccc3C)C4=O)cc2C1=O	-0.86	nt
O=C(NC(=O)c1c(Cl)cccc1Cl)ON(Cc1ccc(Cl)cc1)Cc1ccc(Cl)cc1	-0.67	nt
CC(=O)Nc1ccc(S(=O)(=O)N2CCN(c3cc4c(cc3F)c(=O)c(C(=O)O)cn4C3CC3)CC2)cc1	-2.4	nt
O=C1C=Cc2ccc(N3CCOCC3)c3cccc1c23	-0.91	-8.5
COc1ccc(Cn2cc(C(=O)c3ccccc3)c(=O)c3cc(OC)c(OC)cc32)cc1	0.06	0.86
O=C(NCC(c1ccco1)S(=O)(=O)c1ccc(F)cc1)C1CC1 (centres undefined)	nt	1.6
CC(C)c1cc(C(=O)N2CCC(c3nc4ccccc4o3)CC2)nn1C1CCS(=O)(=O)C1 (centres undefined)	-1.7	0.55
Cc1ccc(NC(=O)c2c(F)cccc2Cl)c(C(=O)Nc2ccc(F)cc2)c1	-0.13	nt
COc1ccc(-c2nc3nc(C)cc(N4CCOCC4)n3n2)cc1	-1.2	0.82
CC(=O)O[C@H]1CC[C@@]2(C)C(CC[C@]3(C)C2CC=C2C4CC(C)(C)CC[C@]4(C)CC[C@]23C)C1(C)C (some centres undefined)	nt	-1.2
CCOC(=O)C1=C(C)Nc2nc(SCc3cccc(F)c3)nn2C1c1ccc(F)cc1 (centres undefined)	-0.09	0.32
Cc1nnc(NC(=O)CSc2nnc(Cc3cccn3C)n2C)s1	-1.8	2.9
O=C(Nc1ccc(F)cc1)c1ccc2c(Cl)c3c(nc2c1)CCC3	-1.6	nt
COc1ccc(-c2n[nH]c3c2cnc2cc(OC)c(OC)cc23)cc1	nt	-0.41
CC(C)Cn1cc(NC(=O)NCC2CCCO2)c2ccccc2c1=O (centres undefined)	nt	0.05
COCCNc1nc(N)c([N+](=O)[O-])c(Nc2ccc(F)cc2)n1	nt	0.04
Cc1ccc(/C(O)=C2/C(=O)C(=O)N(CC(C)O)C2c2ccc(C(C)C)cc2)cc1 (centres undefined)	-0.53	0.4
CC1=C(C(=O)OCCc2ccccc2)C(c2coc3ccc(Cl)cc3c2=O)C2=C(CCCC2=O)N1 (centres undefined)	-1	-0.81
CCC1c2ccc(C)n2CCN1C(=O)Nc1ccccc1 (centres undefined)	-1.6	-9.7
Cc1c(C=N/C(C#N)=C(\N)C#N)c(=O)n(-c2ccccc2)n1C	-0.7	nt
Cn1c(=O)[nH]c(=O)c2[nH]c(NCc3ccco3)nc21	1.8	nt
O=C(Nc1nc(-c2ccccn2)cs1)c1ccc2c(c1)OCCO2	nt	1.1
O=C(NCC1CN(Cc2ccccc2)CCO1)c1ccc(N2CCOCC2)nc1 (centres undefined)	-2.8	nt
CC(C)n1c(CN2CCOCC2)nc2c1c(=O)n(C)c(=O)n2C	-1.1	0.19
CNC(=O)N1CCn2cccc2C1C(C)C (centres undefined)	nt	-1.3

Some of these compounds in order of molecular weight, largest number first:
SMILES	CDC25B-CDK2 inh	HIV TAR-Tat
O=C(NCC1CN(Cc2ccccc2)CCO1)c1ccc(N2CCOCC2)nc1 (centres undefined)	-2.8	nt
CC(C)n1c(CN2CCOCC2)nc2c1c(=O)n(C)c(=O)n2C	-1.1	0.19
CCC1c2ccc(C)n2CCN1C(=O)Nc1ccccc1 (centres undefined)	-1.6	-9.7

New compounds follow
SMILES	CDC25B-CDK2 inh	HIV TAR-Tat
Cc1cc(C)cc(NS(=O)(=O)c2ccc3c(c2)c(=O)n(C)c(=O)n3C)c1	nt	-0.67
Cc1ccc(Cl)cc1-n1ncc2c(NCCN(C)C)ncnc21	nt	1.3
Cc1ccc(S(=O)(=O)c2nnn3c2nc(NCc2cccs2)c2sccc23)cc1	nt	-0.44
CNC(=O)CN1C(=O)CSc2ncccc21	-0.58	-0.07
CC1=C(C(=O)N2CCCCC2)C2(CCN(S(C)(=O)=O)CC2)OC1=O	nt	0.77
OCCNC(=S)Nc1ccccc1	-2.2	nt
COC(=O)c1ccc(C2C(C(=O)OC3CCCC3)=C(C)NC3=C2C(=O)CCC3)cc1 (centres undefined)	-2.8	2
CCSc1ncc(Cl)c(C(=O)Nc2sc3c(c2C(=O)NCC2CCCO2)CCCC3)n1 (centres undefined)	-0.21	0.74
CCOC(=O)C(CC)Oc1ccc2c(=O)c(Oc3ccccc3Cl)coc2c1 (centres undefined)	-1.5	nt
CC(=O)Oc1cc2c(C(=O)OC(C)C)c(C)oc2cc1Br	-2.1	nt
CCOC(=O)C1=C(c2ccccc2)NC(SCC(=O)OC)=C(C#N)C1c1cccc(F)c1 (centres undefined)	0.62	0.57
OC(COc1ccc(C23CC4CC(CC(C4)C2)C3)cc1)CN1CCCCC1 (centres undefined)	-1.6	nt
COCCNC(=O)C1=CC(c2ccc3c(c2)OCO3)=NS(=O)(=O)N1C	-2.1	1.5
COc1ccccc1/C=C/c1nc(C#N)c(NCCCn2ccnc2)o1	-2.1	2.1
Cc1nc(C(F)(F)F)ccc1C(=O)NC1CCCc2ccccc21 (centres undefined)	-0.13	nt
O=C(NC(=O)c1csc([N+](=O)[O-])c1)Nc1ccccc1C(F)(F)F	-1.1	nt
c1ccc2c(c1)nc1n2CN(Cc2ccc3c(c2)OCO3)CN1	-1.7	1.4
COc1ccc(OCC(=O)N2CC3(C)CC2CC(C)(C)C3)cc1 (centres undefined)	-0.72	nt
Clc1ccc(-c2noc3ncnc(N4CCN(c5ncccn5)CC4)c23)cc1	-1.6	-0.39
Cc1cccn2c(=O)c3cc(C#N)c(=O)n(-c4cccc5ccccc45)c3nc12	-1.1	0.59
CCOc1ccc(OCC)c(NS(=O)(=O)c2ccc(-c3ccc(=O)[nH]n3)s2)c1	nt	0.94
O=C1CCSc2ccc(S(=O)(=O)Nc3ccc(F)cc3F)cc2N1	nt	-0.1
CCOC(=O)c1c(N)sc2c(OCc3ccccc3)c(Br)ccc12	-1.9	2.1
CC1=C(c2ccc(C(C)C)cc2)S(=O)(=O)N=C1N1CCC(C(=O)NC2CCCC2)CC1	nt	1.3
CC(=O)N1CCCc2cc(S(=O)(=O)CCC(=O)O)ccc21	nt	2.4

Quoted at random: five compounds from above.
SMILES	CDC25B-CDK2 inh	HIV TAR-Tat
CCOC(=O)C1=C(C)Nc2nc(SCc3cccc(F)c3)nn2C1c1ccc(F)cc1 (centres undefined)	-0.09	0.32
COc1ccc(OCC(=O)N2CC3(C)CC2CC(C)(C)C3)cc1 (centres undefined)	-0.72	nt
CCOc1ccc(OCC)c(NS(=O)(=O)c2ccc(-c3ccc(=O)[nH]n3)s2)c1	nt	0.94
Cc1ccc(NC(=O)c2c(F)cccc2Cl)c(C(=O)Nc2ccc(F)cc2)c1	-0.13	nt
OC(COc1ccc(C23CC4CC(CC(C4)C2)C3)cc1)CN1CCCCC1 (centres undefined)	-1.6	nt

Next section:
SMILES	CDC25B-CDK2 inh	HIV TAR-Tat
O=C1CC(c2ccccc2)=NN1c1cccc(Cl)c1	nt	-0.46
COC(=O)c1cc(C#N)c(=O)[nH]c1C	-1.7	-2.1
C=CCOc1ccc(/C(O)=C2\C(=O)C(=O)N(Cc3cccnc3)C2c2ccc(Cl)cc2)c(C)c1 (centres undefined)	0.73	1.9
Cc1cc(Cl)ccc1NC(=S)NNC(=S)Nc1ccc(F)cc1	0.27	nt
NC(=O)C1(N2CCCCC2)CCN(C(=O)Nc2ccc(Cl)cc2)CC1	-2.3	0.96
Cn1cnc(S(=O)(=O)NCCc2nc3ccccc3[nH]2)c1	nt	2.1
O=C1Cc2cc(NS(=O)(=O)c3ccc4c(c3)CCCC4)ccc2N1	nt	0.75
CCCN(CCC)S(=O)(=O)c1ccc2c(c1)NC(=O)CC(=O)N2	nt	-0.18
c1coc(-c2nn3cnnc3s2)c1	-0.37	-0.02
CC1(C)CC(=O)c2cc(-c3nc(-c4ccc(F)cc4)cs3)c(=O)[nH]c2C1	-1.8	-1.8
O=C(Cn1nc(C(F)(F)F)c2c1CCCC2)NCc1cccs1	0.58	3.3
COC1=CC(=C2C=CC(=[N+](C)C)C=C2)Oc2ccccc21	0.59	0.16
CN(CC(=O)Nc1ncn[nH]1)S(=O)(=O)c1ccc(Cl)cc1	-0.51	-1.3
CC1Sc2ccc(S(=O)(=O)N3CCCC3)cc2NC1=O (centres undefined)	nt	1.6
CC1=C(C(=O)NC(C)CCc2ccccc2)C2(CCC(C)CC2)OC1=O (centres undefined)	-0.72	3.6
CCc1nc2ccccc2n1CC(O)COc1ccc(Cl)cc1 (centres undefined)	-0.52	1.2
CC(=O)Nc1cccc(OCCCNC(=O)c2cc(-c3ccc(Cl)cc3)oc2C(F)(F)F)c1	-1.9	nt
COC(=O)c1cc2oc(C)cc2n1Cc1nc(-c2cccc(Br)c2)oc1C	-2.2	1.4
CN(C)S(=O)(=O)c1ccc2c(c1)N(CC(=O)NC1CCCCC1)CCS2	nt	-0.6
O=C(Cn1cc2c(n1)CCCC2)NCC1CCCO1 (centres undefined)	-0.78	nt
Cc1csc2nc(CSc3nnc(-c4ccccc4Cl)o3)cc(=O)n12	-2	2.4
Cc1c(C(=O)N2CCCC2)oc2c1-c1nn(CC(=O)NCCCN3CC(C)CC(C)C3)cc1CC2 (centres undefined)	nt	2.4
O=C(CCCc1nc(-c2cccs2)no1)N1CCN(c2ccccc2)CC1	1	1.5
Cn1cnc(SCC(=O)N2c3ccccc3Sc3ccccc32)n1	-2.5	0.93
CCN(CC)C(=O)c1c(C)oc2ncnc(N3CCCCC3)c12	nt	-2.3

Continuation.
SMILES	CDC25B-CDK2 inh	HIV TAR-Tat
Fc1ccc(Nc2ncnc3c2cnn3-c2cccc(Cl)c2)cc1	nt	1.8
Cc1nn(CCC#N)c(C)c1Sc1ncccn1	-1.7	nt
O=C(O)C1CCCN(S(=O)(=O)c2ccccc2Br)C1 (centres undefined)	0.19	-0.3
CCOc1ccc(C2c3c(oc4ccc(F)cc4c3=O)C(=O)N2Cc2ccc3c(c2)OCO3)cc1 (centres undefined)	-0.62	1.4
Cc1ccc(Cn2cnc3c(nnn3Cc3ccc(Cl)cc3)c2=O)cc1	0.19	-0.36
COc1ccc(Cl)cc1Nc1nc(SC)nc2c1CCC2	-0.22	-0.39
CCc1nn(C(C)C(=O)Nc2cc(C)cc(C)c2)c(=O)c2cc3occc3n12 (centres undefined)	0.36	1.4
N/C(=N/OC(=O)c1cccc(C(F)(F)F)c1)C1COc2ccccc2O1 (centres undefined)	-2.6	nt
CCN1C(C(=O)c2ccccc2)=C(OC(=O)Cc2ccccc2)c2ccccc2S1(=O)=O	-2.2	1.6
O=C1CC(/C=C/c2ccccc2)(Nc2ccc([N+](=O)[O-])cc2)C(=O)N1C1CCCCC1 (centres undefined)	-2.1	nt
Cn1c(=O)c(Nc2ccc(Cl)cc2)c2c3c(cccc31)C(=O)c1ccccc1-2	-0.38	-8.4
CCCCNc1ncnc2c1nc1n2CCCCC1	nt	-1.7
O=C1CCCC2=C1C(c1cccc(O)c1)n1ncnc1N2 (centres undefined)	-1.8	-0.39
CN1C(=O)Cc2cc(S(=O)(=O)CCC(=O)Nc3ccc4c(c3)OCO4)ccc21	nt	-3.3
Cc1c(C(=O)NCCCN2CCC(C)CC2)sc2ncn(CC(=O)N3CCCCC3C)c(=O)c12 (centres undefined)	-1.1	1.5
COc1ccc2c(c1)cc1c(=O)n(CC(=O)NC(C)C)nc(C)n12	-0.83	-1.4
Cc1ccccc1Cn1c(=O)n(Cc2ccco2)c(=O)c2sc3ccccc3c21	0.17	0.7
Cn1c(C(=O)NCCc2ccco2)c(N2CCCC2=O)c2cc(F)ccc21	nt	0.15
CCSC1=C(C#N)C(=O)NC(c2ccc(O)c(OC)c2)S1 (centres undefined)	-1.6	0.34
O=C1CC(C(=O)Nc2ccc3c(c2)OCO3)N=C(Nc2ccc(F)cc2)N1 (centres undefined)	nt	0.9
CC(=O)Nc1nonc1-c1nnc(SCC(=O)N2CCCc3ccccc32)n1C	-2.3	-0.24
COC(=O)CSC1=C(C#N)C(c2ccc(C(C)C)cc2)CC(=O)N1 (centres undefined)	-0.56	0.18
Cc1cccc2c(O)c(N=Nc3ccccc3)c(=O)oc12	-1.6	nt
Nc1nc2c(c(=O)[nH]1)C(c1ccc3c(c1)OCO3)CC(=O)N2 (centres undefined)	-1.2	0.89
CCN1CCN(CCCNc2nn3nnnc3c3ccccc23)CC1	0.55	0.52

Next section
SMILES	CDC25B-CDK2 inh	HIV TAR-Tat
O=S1(=O)N=C(Nc2ccc3c(c2)OCO3)c2ccccc21	-2.1	2.4
Cn1ccc(-c2nc3ccccc3s2)n1	-0.87	nt
CC1(C)Cc2c(C#N)c(NCc3ccccc3)nc(-c3ccccc3)c2CO1	-0.21	-1.3
CCN(CC)CCNC(=O)Cn1cc2c(n1)-c1c(oc(C(=O)N3CCCC3)c1C)CC2	nt	0.59
COc1ccc(CCNC(=O)c2nccnc2C(=O)O)cc1OC	-1.5	nt
COc1cc2c(cc1OC)C1(CCCC1)CNC2C (centres undefined)	-1.7	0.06
COC(=O)[C@]1(C)C=C2C3=CC(=O)C4[C@@]5(C)CCC(O)C(C)(C)C5CC[C@@]4(C)[C@]3(C)CC[C@@]2(C)CC1 (some centres undefined)	-2.5	nt
Cc1ccc(S(=O)(=O)[C@H]2CS(=O)(=O)C[C@@H]2NCCc2ccccc2F)cc1	-0.07	1.9
O=C(Nc1ccc(F)cc1)c1csc2c1CCCC2	-0.66	0
COC(=O)c1c(N)n(CCc2ccccc2)c2nc3ccccc3nc12	1.2	1.6
Oc1ccc2nc(N3CCOCC3)sc2c1	-2	1.1

In the list so far, four have bromine:
SMILES	CDC25B-CDK2 inh	HIV TAR-Tat
CC(=O)Oc1cc2c(C(=O)OC(C)C)c(C)oc2cc1Br	-2.1	nt
CCOC(=O)c1c(N)sc2c(OCc3ccccc3)c(Br)ccc12	-1.9	2.1
COC(=O)c1cc2oc(C)cc2n1Cc1nc(-c2cccc(Br)c2)oc1C	-2.2	1.4
O=C(O)C1CCCN(S(=O)(=O)c2ccccc2Br)C1 (centres undefined)	0.19	-0.3
